High-throughput results deposited in PubChem by several laboratories.
PKD1 inh = inhibitors of human PKD1 kinase, biochemical, fluorescence polarization. PKD1 kinase fluorescence polarization assay. Serine/threonine-protein kinase D1 (Homo sapiens), Q15139. inhibition, %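 (about 10 µM by stock and volumes)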. 200,000 tested, 0.056% active;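 active = inhibition of 50% or more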;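 also: controls were vehicle for no effect and a reference inhibitor for full effect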
Target sequence (Q15139 whole entry, looked up): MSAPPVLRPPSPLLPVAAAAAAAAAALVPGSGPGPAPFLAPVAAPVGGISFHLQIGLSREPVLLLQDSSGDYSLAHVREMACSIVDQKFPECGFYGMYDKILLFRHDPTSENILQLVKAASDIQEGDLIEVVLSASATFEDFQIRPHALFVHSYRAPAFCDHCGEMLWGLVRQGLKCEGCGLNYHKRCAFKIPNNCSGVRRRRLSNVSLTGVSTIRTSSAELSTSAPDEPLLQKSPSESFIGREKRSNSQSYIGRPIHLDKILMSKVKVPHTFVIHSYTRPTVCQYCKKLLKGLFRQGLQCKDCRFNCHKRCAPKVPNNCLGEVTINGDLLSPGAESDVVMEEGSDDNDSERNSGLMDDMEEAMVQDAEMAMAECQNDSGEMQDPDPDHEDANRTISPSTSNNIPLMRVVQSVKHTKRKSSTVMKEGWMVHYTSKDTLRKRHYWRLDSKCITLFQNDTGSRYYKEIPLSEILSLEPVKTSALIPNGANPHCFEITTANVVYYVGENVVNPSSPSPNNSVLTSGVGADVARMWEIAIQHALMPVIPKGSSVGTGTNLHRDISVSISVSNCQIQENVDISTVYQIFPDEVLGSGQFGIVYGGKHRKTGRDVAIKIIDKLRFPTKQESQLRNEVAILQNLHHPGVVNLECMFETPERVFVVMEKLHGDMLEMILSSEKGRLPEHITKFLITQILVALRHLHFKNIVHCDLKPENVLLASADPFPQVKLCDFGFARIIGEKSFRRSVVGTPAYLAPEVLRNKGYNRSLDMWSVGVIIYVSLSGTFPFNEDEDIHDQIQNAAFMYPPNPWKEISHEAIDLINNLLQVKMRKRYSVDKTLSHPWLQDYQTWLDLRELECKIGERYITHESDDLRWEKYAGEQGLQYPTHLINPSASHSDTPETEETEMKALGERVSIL
RGS16-Gao = modulators of RGS16 binding to Galphao, primary screen, biochemical, human proteins, multiplexed bead flow cytometry. Regulator of G-protein signaling 16 (Homo sapiens) + Guanine nucleotide-binding protein …. bead-based flow cytometry RGS16-Galphao binding, fluorescence; actives lie on both sides. binding response (% of control), % at 10 µM. 220,000 tested, 0.38% active. AID 1441, 2008;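 active = below 25% or above 175%, edge rows of some plates excepted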;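 also: Galphao activated by GDP with aluminum fluoride before binding; 100% = wells without compound and 0% = beads without RGS; some results beyond the cut were filed as inactive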
GALR2 agonist = GALR2 receptor agonists, primary screen, cell-based. GALR2-expressing cells, agonist activation read-out. activation, %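 (tested at 5 µM)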. Galanin receptor type 2 (Homo sapiens), O43603. 140,000 tested, 0.48% active;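 active = above mean plus 3 SD of all compounds, about 5% in these data, not always enough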;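 also: 0% = vehicle buffer wells and 100% = reference agonist at full effect; tested in CHO reporter cells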
HSV replic up = enhancers of HSV replication in host cells, fold increase, host cell viability. HSV replication augmentation in cells. maximum fold increase. 220,000 tested, 0.005% active. AID 1956, 2009;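 active = peak rise of 1.5-fold or more in the series; tested in PC3 cells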;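 also: first round at 10 µM; read as green reporter fluorescence; hits show the peak of a series up to 25 µM; 1 = signal of infected wells without compound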
INS promoter inh = inhibitors of insulin promoter-driven GFP, primary screen, imaging, TRM-6 cells (human fetal islet line), eGFP reporter, cell count | reporter expression induced with tamoxifen | inhibition, % at 2 µM | 130,000 tested, 0.9% active | AID 1273, 2008;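 active = inhibition above the mean plus 3 SD, with well images judged a real hit on visual review, cut at about 60% in these data, passing the limit was not always enough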
INS promoter inh cell count = recorded beside INS promoter inh, whose call it bears; normalized cell count, %; measured here: cell count, toxicity; reference of the scale not given here;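 cells exposed to compound for 48 h; stained nuclei by imaging scaled within each plate; lower means fewer cells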
HSV replic up primary fold = recorded beside HSV replic up, whose call it bears; fold increase; compound at 10 µM; measured here: primary screen fold increase 10 uM; tested in PC3 cells;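 GFP signal in the first replicate; 1 = infected wells without compound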
* marks the source's active call; other numbers are inactive results; i = inactive; / = no result given.

SMILES | PKD1 inh | RGS16-Gao | GALR2 agonist | HSV replic up | HSV replic up primary fold | INS promoter inh | INS promoter inh cell count
Cc1ccc(C(=O)N2CCC3(CC2)Oc2ccc(Cl)cc2C(=O)C32CC(c3cccnc3)=NO2)s1 (centres undefined) | / | 107.1 | / | i | 0.72 | / | /
CCCCOc1ccc(S(=O)(=O)NNC(=O)c2cc3ccccc3o2)cc1 | -8.6 | 99.5 | -0.7 | i | 1.02 | 12.0 | 100.3
COc1ccc(CNC(=O)c2ccc(N3CCOCC3)c([N+](=O)[O-])c2)cc1 | 0.7 | 99.6 | / | i | 1.07 | / | /
c1csc(-c2cn3c(n2)SCC3)c1 | -13.6 | 81.4 | -0.8 | i | 0.93 | / | /
COC(=O)COc1nsnc1N1CCOCC1 | -4.2 | 106.5 | -2.7 | i | 0.87 | / | /
O=C(/C=C/c1ccccc1)N/C(=C/c1ccccc1)C(=O)N1CCOCC1 | 1.3 | 81.5 | -0.9 | i | 1.03 | 37.8 | 55.9
CCOC(=O)C1CCN(C(=O)CCS(=O)(=O)c2ccc3c(c2)CCN3C(=O)CC)CC1 | -3.6 | 88.8 | / | i | 0.96 | 28.6 | 111.0
CCC(=O)Nc1cccc(C2=NOC3(C2)C[C@@H](C(N)=O)N(C(=O)c2cc([N+](=O)[O-])cc([N+](=O)[O-])c2C)C3)c1 (some centres undefined) | / | 94.5 | / | i | 1.3 | / | /
Cc1cccc(-c2noc(-c3cc4ccccc4oc3=O)n2)c1 | 2.2 | 99.5 | -1.1 | i | 1.07 | 2.0 | 129.7
C=CCn1c(SCC(=O)Nc2sccc2C(N)=O)nc2ccc(Cl)cc2c1=O | -2.9 | 104.3 | 1.5 | i | 0.84 | -16.2 | 84.1
CCN(CC)C(=O)COC(=O)c1cc(-c2ccco2)nc2ccccc12 | -0.2 | 88.8 | / | i | 1.09 | -27.3 | 137.9
COc1ccc2c(=O)c(N3C(=O)c4ccccc4C3=O)coc2c1 | -1.5 | 103.3 | -0.7 | i | 1.01 | -27.6 | 101.3
COc1ccccc1NC(=O)c1cc(Cl)nnc1Cl | -6.5 | 99.6 | / | i | 0.86 | / | /
CCOC(=O)c1c(/N=C/c2cccc([N+](=O)[O-])c2O)sc2c1CCC2 | / | 94.8 | / | i | 1.09 | / | /
COc1ccccc1N1CCN(C(=O)c2ccc(CS(=O)(=O)c3ccccc3OC)o2)CC1 | 1.9 | 40.2 | 0.1 | i | 1.19 | / | /
COc1ccc(-n2cccc2/C=C2\C(=N)N3N=C(c4ccco4)SC3=NC2=O)cc1 | -1.9 | 45.0 | / | i | 1.04 | -25.0 | 64.8
O=C(Nc1ccc(S(=O)(=O)Nc2ncccn2)cc1)c1ccc(S(=O)(=O)N2CCCC2)cc1 | -8.7 | 97.9 | / | i | 1 | / | /
COCC(C)NC(=O)CSc1nc2ccccc2n1CCc1ccccc1 (centres undefined) | -10.9 | 111.5 | -1.1 | i | 1.01 | / | /
COc1ccccc1CNC(=O)c1ccc(NS(C)(=O)=O)cc1 | -6.4 | 100.5 | 0.4 | i | 0.88 | -54.3 | 72.2
O=S(=O)(/N=C(/Nc1ccc(F)cc1F)c1ccccc1)c1ccccc1 | -9.9 | 101.5 | -1.7 | i | 1.04 | -26.9 | 157.3

4 entries from above, with values under each structure.
Results follow in this order: PKD1 inh, RGS16-Gao, GALR2 agonist, HSV replic up, HSV replic up primary fold, INS promoter inh, INS promoter inh cell count
Cc1ccc(C(=O)N2CCC3(CC2)Oc2ccc(Cl)cc2C(=O)C32CC(c3cccnc3)=NO2)s1 (centres undefined)
 : /, 107.1, /, i, 0.72, /, /
CCCCOc1ccc(S(=O)(=O)NNC(=O)c2cc3ccccc3o2)cc1
 : -8.6, 99.5, -0.7, i, 1.02, 12.0, 100.3
COc1ccc(CNC(=O)c2ccc(N3CCOCC3)c([N+](=O)[O-])c2)cc1
 : 0.7, 99.6, /, i, 1.07, /, /
c1csc(-c2cn3c(n2)SCC3)c1
 : -13.6, 81.4, -0.8, i, 0.93, /, /

Continued:
SMILES | PKD1 inh | RGS16-Gao | GALR2 agonist | HSV replic up | HSV replic up primary fold | INS promoter inh | INS promoter inh cell count
COc1ccccc1NC(=O)c1nnn(CC(=O)Nc2cccc(SC)c2)c1N | -3.3 | 103.1 | -2.2 | i | 0.81 | -16.2 | 182.0
Cc1cc(S(=O)(=O)N2CCN(c3ncccn3)CC2)ccc1-n1cnnn1 | -1.0 | 95.8 | -0.8 | i | 0.84 | / | /
CCOC(=O)c1cc(C(=O)NN)c(=O)[nH]c1C | / | 100.1 | / | i | 0.97 | / | /
COc1ccc(N2C(=O)CCC(C(=O)N3CCN(c4ccccn4)CC3)C2c2ccc(F)cc2)cc1 (centres undefined) | -0.8 | 100.4 | / | i | 0.89 | / | /
CCCCC1=CC2=C(c3ccco3)C(=O)C(C)(OC(=O)c3ccc(OC)cc3)C(=O)C2=CN1CC(C)C (centres undefined) | / | 98.8 | / | i | 1.08 | / | /
CN(C)CCNC(=O)Cc1c(C(=O)O)n(C)c2ccccc12 | -11.7 | / | -3.4 | / | / | 29.2 | 107.5
Cc1ccc2nc(SCC(=O)Nc3nnc(SCC(N)=O)s3)[nH]c2c1 | -14.3 | 102.8 | -2.5 | i | 0.82 | / | /
O=C(CSc1ccc2nnc(-c3cccc(F)c3)n2n1)N1CCCc2ccccc21 | -3.3 | 104.9 | 9.1* | i | 0.89 | / | /
Nc1ccc(C(=O)n2c3ccccc3c3ccccc32)cc1 | -2.5 | 98.1 | -1.8 | i | 0.62 | -290.5 | 5.1
COc1ccc2cc(C(c3nnnn3C3CCCCC3)N3CCCCCC3)c3nnnn3c2c1 (centres undefined) | -6.2 | / | 13.1* | / | / | -54.8 | 43.7
COCC(=O)Nc1ccc(OCc2ccccc2)cc1 | 1.5 | 51.5 | -0.1 | i | 0.91 | -22.2 | 103.2
O=C(NCC1CCCO1)c1nc2c(nnn2Cc2ccccc2Cl)c(=O)[nH]1 (centres undefined) | -1.4 | 111.7 | 0.5 | i | 1 | 44.8 | 75.8
Cc1cccc(-n2nnc(C(=O)NCc3ccccn3)c2N)c1 | -3.7 | 83.8 | -1.2 | i | 0.9 | / | /
N#C/C(=N\Nc1cccc(F)c1)C(=N)N1CCCCCC1 | -0.2 | 103.6 | / | i | 1.04 | -15.0 | 92.9
COc1ccc(Cl)cc1NC(=O)CN(C)C(=O)COc1ccccc1F | -2.9 | 99.8 | / | i | 0.99 | 33.3 | 92.6
O=C(Nc1ccc(N2CCN(C(=O)c3ccccc3)CC2)c(Cl)c1)c1ncn[nH]1 | / | 94.2 | / | i | 0.66 | / | /
COc1ccccc1-c1ccc(SCC(=O)NCCc2ccccc2)nn1 | 3.8 | 40.4 | / | i | 0.95 | -77.8 | 25.2
COc1ccc(NS(=O)(=O)c2ccc(NC(=O)c3ccc(Br)cc3)cc2)nn1 | -4.1 | 102.2 | / | i | 1.21 | / | /
Cc1nc(NC(=O)CCCC(=O)Nc2nc(C)c(C)s2)sc1C | -17.2 | 94.6 | -1.8 | i | 0.85 | -85.2 | 84.9
CCOC(=O)CC1OC(=O)c2cc3c(cc21)C(=O)OC3CC(=O)OCC (centres undefined) | / | 100.8 | / | i | 1.12 | / | /

One compound at a time (already shown):
Cc1ccc(C(=O)N2CCC3(CC2)Oc2ccc(Cl)cc2C(=O)C32CC(c3cccnc3)=NO2)s1 (centres undefined) reads PKD1 inh = /; RGS16-Gao = 107.1; GALR2 agonist = /; HSV replic up = i; HSV replic up primary fold = 0.72; INS promoter inh = /; INS promoter inh cell count = /
COCC(C)NC(=O)CSc1nc2ccccc2n1CCc1ccccc1 (centres undefined) reads PKD1 inh = -10.9; RGS16-Gao = 111.5; GALR2 agonist = -1.1; HSV replic up = i; HSV replic up primary fold = 1.01; INS promoter inh = /; INS promoter inh cell count = /

Other results follow:
SMILES | PKD1 inh | RGS16-Gao | GALR2 agonist | HSV replic up | HSV replic up primary fold | INS promoter inh | INS promoter inh cell count
COc1ccc(C2C(=O)c3ccccc3C2=O)cc1OC | -1.6 | 95.7 | / | i | 1.07 | 0.0 | 80.8
CCC(=O)NC(=S)Nc1ccc(NC(=O)c2ccc([N+](=O)[O-])cc2Cl)cc1 | -3.3 | 100.0 | -1.4 | i | 0.88 | / | /
O=C(COc1ccc(Cl)cc1)Nc1nc(-c2cccs2)cs1 | -6.2 | 104.1 | -2.1 | i | 0.94 | / | /
Cc1nn(Cc2cccc(C(=O)Nc3ccn(Cc4ccccc4)n3)c2)c(C)c1[N+](=O)[O-] | 4.8 | 100.4 | -1.9 | i | 1.19 | 7.1 | 115.6
CCCCn1c(-c2cccs2)nc2oc3ccccc3c(=O)c2c1=O | / | 98.7 | / | i | 0.89 | / | /
Cc1nn(-c2cc(C(F)(F)F)ccc2Cl)c2nc(C(Cl)(Cl)Cl)[nH]c(=O)c12 | / | 99.9 | / | i | 1.09 | / | /
CCCn1c(SCC(=O)NC(C)c2ccccc2)n[nH]c1=O (centres undefined) | -6.5 | 107.4 | / | i | 0.97 | 16.7 | 80.0
C=CCN(CC=C)S(=O)(=O)c1ccc(NC(=S)NC(=O)/C=C/c2ccc(C)cc2)cc1 | 6.8 | 89.4 | 0.1 | i | 0.85 | -5.7 | 78.3
CCOc1cc(N2CCOCC2)c(OCC)cc1NC(=O)Cc1ccccc1OC | -8.7 | 90.3 | -2.3 | i | 0.81 | -20.0 | 65.4
COc1cc2c(cc1OC)C(c1cc([N+](=O)[O-])ccc1O)NCC2 (centres undefined) | -0.3 | 100.2 | / | i | 0.96 | 55.6 | 56.0
O=C(Nc1cc(=O)[nH]c2ncnn12)c1ccccc1F | / | 107.2 | / | i | 1.01 | / | /
Cc1cccc(NC(=S)N/N=C/C(C)c2ccccc2)c1C (centres undefined) | -2.0 | 94.3 | / | i | 0.91 | 0.0 | 77.7
Cc1ccc(-c2ccc(S(=O)(=O)N3CCCC3)cc2)cc1 | -7.9 | 102.9 | / | i | 0.84 | / | /
O=C1c2ccccc2S(=O)(=O)N1CCOc1ccc(F)cc1 | 3.1 | 102.7 | -1.4 | i | 0.78 | / | /
CCCCOc1ccc(C(=O)OCC(=O)Nc2cc(C)c(C)cc2[N+](=O)[O-])cc1 | -5.2 | 105.2 | -0.9 | i | 0.99 | -24.3 | 103.4
Cc1ccc(C)c(S(=O)(=O)NCc2ccc(C(=O)N3CCCCC3C)cc2)c1 (centres undefined) | -0.7 | 103.8 | 0.5 | i | 0.97 | 5.7 | 130.9
COc1ccc(S(=O)(=O)/N=C2/C=CC(=O)C(C)=C2C)cc1 | -9.7 | 106.2 | -0.9 | i | 0.85 | -3.9 | 75.8
CCN(C(=O)CN(C)Cc1c(F)cccc1Cl)c1c(N)n(Cc2ccccc2)c(=O)[nH]c1=O | -2.2 | 99.4 | -0.4 | i | 1.04 | / | /
CCOC(=O)c1sc2nccc(OC)c2c1N=CN(C)C | -7.1 | 93.0 | / | i | 0.98 | / | /
CC(=O)Cn1nnc(-c2ccc(C(F)(F)F)cc2)n1 | / | 99.6 | / | i | 1 | / | /
CCNC(=O)COC(=O)c1cc(C)nc2ccccc12 | -7.0 | 99.9 | / | i | 1.02 | / | /
COc1cccc(CN2CCN(Cc3[nH]c4ccccc4c3C)CC2CCO)c1 (centres undefined) | 7.2 | 105.0 | / | i | 0.92 | -65.2 | 148.2
NC(=O)COC(=O)CC12CC3CC(CC(Br)(C3)C1)C2 | -0.6 | 95.2 | / | i | 0.85 | 21.1 | 113.1
CCCC(=O)Nc1cccc(NC(=O)c2ccc([N+](=O)[O-])cc2Cl)c1 | 4.8 | 94.2 | -1.0 | i | 0.83 | / | /
CC1CCN(Cc2nc(Cl)c3c4c(sc3n2)CCC4)CC1 | -1.4 | 102.8 | / | i | 0.75 | / | /
CN(C)C(=O)CCc1nc2sc3c(c2c(=O)[nH]1)CCCC3 | 0.2 | 105.3 | -0.2 | / | / | 6.5 | 147.9
O=C(CNc1cccc2ccccc12)N/N=C/c1ccc(OC(=O)/C=C/c2ccco2)cc1 | -3.1 | 100.7 | -2.2 | i | 1.03 | 37.5 | 110.5
Oc1[nH]c2c(Cl)cc(Cl)cc2c1N=NC(=S)NCC1CCCO1 (centres undefined) | 2.0 | 106.6 | 0.6 | i | 0.91 | / | /
Cc1cccc(CCNC(=O)C2CCC(CNc3c(N4CCCC4)c(=O)c3=O)CC2)c1 (centres undefined) | -5.9 | 111.4 | / | i | 0.85 | / | /
Cc1cc(/C(N)=N/OC(=O)Nc2ccccc2)no1 | / | 101.1 | / | i | 0.95 | / | /
COc1ccc(NC(=O)Nc2c(SC)nsc2SC)cc1 | -6.8 | 104.7 | / | i | 0.82 | -66.7 | 43.4
